Screening results from PubChem.
AID504770: E. coli YBA685 growth inhibition, screen for V. cholerae RctB inhibitors; E. coli YBA685 rctB-dependent plasmid, OD600 growth, 3 h; hits give low values; z-score (test concentration not listed); actives 0.27% (n = 130,000); AID 504770;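 active means z-score under -2 on both plates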;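 further: wells of about 30 µL received 100 nL stock; score is relative to mean and SD of the test wells; the first replicate is given; strong numbers were not always called active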
CapD inh: blocks the Bacillus anthracis CapD enzyme; purified CapD enzyme, fluorescence intensity read-out; hits give low values; some hits fall short of the stated cut; z-score (test concentration not listed); actives 0.23% (n = 140,000); AID 492967;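 active means z-score under -4 in either of two replicates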;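 further: stock transfer was 100 nL into about 40 µL; score is relative to mean and spread of the plate; one replicate is shown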
An asterisk follows results filed as active; / = no result given; & = joins results of further samples. Rows are unselected; 0.37% or so of the library scored in one or more.

no. | compound | AID504770 | CapD inh
1 | OC1(C(F)(F)F)CC(/C=C/c2cccs2)=NN1 (stereo not drawn) | -0.35 | 15.2
2 | CCc1ccc(NC(=O)C(CC)Sc2nc3nccnc3c(=O)n2CCc2ccccc2)cc1 (stereo not drawn) | 0.1 | -1.92
3 | COc1ccc(Oc2ccc3c(C(F)(F)F)cc(C(F)(F)F)nc3n2)cc1 | / | -0.105
4 | O=C(NCCc1cnc[nH]1)c1ccc(-n2nc(-c3ccccc3)cc2-c2ccccc2)cc1 | / | 2.01
5 | CCN(CC)/C(=N/OCc1ccc(Cl)cc1Cl)c1nonc1N | 1.85 | /
6 | CCN(c1ccccc1)S(=O)(=O)c1cc2c(cc1C)n(C)c(=O)c(=O)n2C | -0.35 | 4.49
7 | Cn1c(SCC(=O)O)nc2ccccc21 | 1.9 | /
8 | FC(F)(F)c1ccc(-n2nnnc2-c2cnccc2C(F)(F)F)cc1 | -0.95 | -0.54
9 | CCCCC1(CO)C(=O)N(c2ccccc2)N(c2ccccc2)C1=O | -0.2 | 0.125
10 | CC(=O)C1=NN(c2ccccc2Cl)C2(S1)c1ccccc1C(c1ccc(Cl)cc1)=NN2c1ccccc1 (stereo not drawn) | / | -0.425
11 | Cc1ccc(NC(=O)CN2C(=O)S/C(=C/c3ccc(C)o3)C2=O)cc1 | 0.75 | 0.635
12 | CC(=O)n1cc(/C=c2\sc3nc4c(C)c(C)ccc4n3c2=O)c(-c2ccc(F)cc2)n1 | / | 0.665
13 | CCOc1ccc(OCCOC(=O)c2ccc(O)cc2)cc1 | -1 | /
14 | CC1(C)CC(=O)C2=C(C1)c1c(ccc3ncccc13)NC2c1ccc(Br)cc1 (stereo not drawn) | / | 18.8
15 | Cn1c(SCc2ccccc2)nnc1C1CCN(C(=O)NCc2ccccc2)CC1 | -0.05 | /
16 | C/C(=N/O)c1[nH]c(C)c(/C(C)=N\O)c1C | -1.5 | /
17 | O=C(/C=C/c1ccccc1)N1CCN(C(=O)/C=C/c2ccccc2)CC1 | -0.6 | -0.16
18 | COC(=O)c1ccc(Cl)cc1NC(=O)N1CCC(CN2CCOCC2)CC1 | 1.6 | 1.54
19 | CCOC(=O)c1ccc(NC(=O)c2cnn3ccccc23)cc1 | -0.4 | 25.5
20 | COc1ccc2c(c1)-c1ccccc1S(=O)(=O)N2S(=O)(=O)c1ccc(C)cc1 | / | -0.37
21 | O=S1(=O)CCC(NC2CCCCC2)C1 (stereo not drawn) | -0.35 | /
22 | O=C1Nc2ccccc2O/C1=C\c1ccc(C(=O)NC2CCCCC2)cc1 | -0.55 | 0.31
23 | Cc1ccc(Cl)cc1N(C)C(=O)c1cc2c(C)nc3ccccc3c2o1 | 0.25 | -1.67
24 | CC(c1ccccc1)n1c(OC(=O)N(C)C)nnc1SCC(=O)c1ccc2c(c1)OCCO2 (stereo not drawn) | -0.85 | 0.055
25 | CCOc1ccc(N2CC(C(=O)Nc3ccccc3C(=O)N3CCOCC3)CC2=O)cc1 (stereo not drawn) | -0.6 | /
26 | O=C(c1cncc(NS(=O)(=O)c2ccc(Cl)cc2)c1)N1CCc2ccccc21 | 1.55 | /
27 | CCn1nc(C)c(Br)c1-c1nc(CS(=O)(=O)c2ccc(F)cc2)no1 | 0.05 | 0.2
28 | O=C(NC1=NCCS1)c1ccco1 | 0.2 | -0.085
29 | Cc1cc(C)n(C2=NCCN2C=C(C#N)C#N)n1 | 0.15 | 0.355
30 | O=c1cc(O)c2cccc3c2n1CCC3 | / | 1.66
31 | COc1cccc(C(=O)Nc2ccc3oc(-c4cccc(Br)c4)nc3c2)c1 | / | 26
32 | Brc1cccc(-c2n[nH]c(-c3ccccc3)n2)c1 | -0.55 | -0.64

Single records (already shown).
O=C(c1cncc(NS(=O)(=O)c2ccc(Cl)cc2)c1)N1CCc2ccccc21 as listed: AID504770 = 1.55; CapD inh = /
CCn1nc(C)c(Br)c1-c1nc(CS(=O)(=O)c2ccc(F)cc2)no1 as listed: AID504770 = 0.05; CapD inh = 0.2

Next section.
no. | compound | AID504770 | CapD inh
33 | CCSc1nc(C)c(C)c(C)c1C#N | -0.35 | /
34 | CCn1c(CSc2ccc(OC)cc2)nc2cc(S(=O)(=O)N3CCCCC3)ccc21 | 0.6 | /
35 | CC1CC(N)C(=O)O1 (stereo not drawn) | -0.45 | /
36 | COc1ccc(C2=NN(S(=O)(=O)c3ccccc3)C(c3ccc(OC)cc3)C2)cc1 (stereo not drawn) | / | 0.325
37 | N#Cc1cccc(C(=O)Nc2ccc(S(=O)(=O)N3CCCCC3)cc2)c1 | -0.7 | /
38 | O=C(OC1CCCC1)c1c(F)cccc1Cl | 2.6 | /
39 | CN(C(=O)N1c2ccccc2Sc2ccccc21)c1ccccc1 | -0.55 | 10.7
40 | CC(=O)Nc1c(C(=O)c2ccccc2)oc2ccccc12 | -0.45 | 1.94
41 | CSCc1c(C(=O)Nc2ccccc2N2CCOCC2)oc2ccccc12 | -0.05 | /
42 | COc1ccccc1N1CCN(CC(=O)c2ccc(F)cc2)CC1 | -1 | /
43 | C=CCOc1c(-c2ccco2)oc2ccccc2c1=O | 0.4 | 35.6
44 | O=C(CSc1ncc(C(F)(F)F)cc1Cl)N1CCNC1=O | 1.25 | /
45 | COc1ccc(-c2csc3c(C#N)c(C)cc(=O)n23)cc1 | 0.55 | /
46 | CCOc1ccc(NC(=O)NCCCN2CCCC2)cc1 | -0.1 | 6.05
47 | Cc1c(Br)c(C(F)(F)F)nn1CC(=O)Nc1cc(Oc2cccnc2)cc([N+](=O)[O-])c1 | / | -0.105
48 | COc1ccccc1Nc1nnc(SCC(=O)Nc2ccnn2C(C)C)s1 | 1.75 | /

Going on with the list.
cpd	mol	AID504770	CapD inh
49	CCCCOc1ccc(C(=O)Nc2cccc(NC(=O)c3ccco3)c2)cc1	-0.85	0.295
50	Cc1ccc(N(C2C=CS(=O)(=O)C2)S(=O)(=O)c2ccccc2)cc1 (stereo not drawn)	1.1	-0.415
51	CCOC(=O)C1=CN(c2ccc(C)cc2)C=C(C(=O)OCC)C1c1cc(OC)c(OC)c(OC)c1	/	8.58
52	COc1ccc(C(Nc2cc(C)ccn2)c2ccc3cccnc3c2O)cc1O (stereo not drawn)	-0.2	-0.32
53	COc1ccc(C(=S)N2CCCCC2)cc1OC	0.05	1.04
54	CCCC(CCC)C(=O)N1CCNc2ccccc2C1	-0.6	0
55	C/C=C/c1n(C)c2ccccc2[n+]1C	-0.1&0.1	0.88&0.53
56	Cc1cc(C(=O)O)nn1C(C)(C)C	0.75	-0.005
57	Cc1ccc(S(=O)(=O)N2CCN(S(=O)(=O)c3ccc(C)cc3)CC2)cc1	-0.3	/
58	Cc1onc(-c2c(Cl)cccc2Cl)c1NC(=O)N1CCCC1=O	0.15	0.6
59	CCOC(=O)c1sc(NC(=O)CC)nc1C	0.25	-0.265
60	CN1C=C(C(F)(F)F)C=C/C1=C(/C#N)c1nnc2n1CCCCC2	-1.95	/
61	Cc1oc2c(F)c(F)c(F)c(F)c2c1/C(N)=N/O	1.6	-0.76
62	Cc1ncc(CO)c2cc(C(=O)NC3=CC4OCOC4C=C3)c(=Nc3ccccc3)oc12 (stereo not drawn)	0.9	-0.36
63	Cc1ccc2nc(NC(=O)Cn3cccc3)sc2c1	0.35	0.21
64	CC(=O)N(c1ccccc1)C1CC(C)N(C(=O)c2cc([N+](=O)[O-])cc([N+](=O)[O-])c2)c2ccccc21 (stereo not drawn)	/	-0.145
65	CN1C(=O)C(C)(C)Nc2ccccc21	0.65	0.055
66	NC(=O)C1CCN(Cn2nc(-c3cccc(F)c3)n(-c3ccccc3)c2=S)CC1	/	0.005
67	CC1Cc2ccccc2N1Cc1ccc(-n2ccnc2)cc1 (stereo not drawn)	0.15	/
68	CN(C)S(=O)(=O)c1ccc(C(=O)Nc2sc3c(c2C#N)CCC3)cc1	-0.55	-0.24
69	Cc1ccc(CN2C(=O)/C(=N\OC(=O)CCCCl)c3ccccc32)cc1	/	-0.475
70	CC(C)C1N=C2c3ccccc3N=C(SCC(=O)c3ccc(Br)cc3)N2C1=O (stereo not drawn)	-0.25	-0.435
71	Fc1ccccc1-c1ncc2ccccn12	-1.1	48.8
72	Fc1ccc(NCc2c[nH]c3ccccc23)cc1	-0.4	/
73	O=C(Cc1ccccc1)Sc1ncn[nH]1	-0.4	-0.065
74	CCCCn1c(SC(CC)C(=O)Nc2ccc3c(c2)OCO3)nc2ccc(N3CCOCC3)cc2c1=O (stereo not drawn)	0.5	0.565
75	Cc1ccc(-n2[nH]c(C)c(C=Nc3ccc(Br)cn3)c2=O)cc1C	/	-0.19
76	CC(C)C(=O)Nc1cc(-c2ccccc2)no1	-0.75	-0.035
77	c1ccc2c(c1)CCCN2Cc1cn2ccccc2n1	1.25	0.43
78	COc1ccc(-c2nnc(SCc3ccc(C#N)cc3)n2CC(C)C)cc1	2.5	/
79	COc1ccc(/C=N/S(=O)(=O)c2ccccc2)c(OC)c1	0.8	/
80	CCCc1ccc(C(=O)NNC(=O)c2ccc(-n3c(C)ccc3C)cc2)cc1	/	0.535
81	COc1cc(/C=N/NC(=S)NCc2ccco2)ccc1O	-0.45	-0.89
82	O=C1C=CC(=NS(=O)(=O)c2cccs2)C=C1	-1.2	-0.49
83	CC(NC(=O)c1ccc(N(C)C)cc1)C(c1cccs1)N1CCN(C)CC1 (stereo not drawn)	2	-1.77
84	c1ccc(Nc2nc(Nc3ccccc3)nc(Sc3nc4ccccc4[nH]3)n2)cc1	1.25	4.64
85	FC(F)(F)c1nnc2ccc(-n3ccnc3)nn12	-0.35	0.145
86	CCC(=O)c1c[nH]c(C(=O)NCc2cccs2)c1	0.35	-0.295
87	O=C(O)c1nc(-c2ccccc2)oc1C(F)(F)F	/	0.115
88	O=C1CC(c2ccccc2)CC(O)=C1C=NCc1ccccn1 (stereo not drawn)	-0.7	0.18
89	O=C(c1cc2sccc2n1Cc1ccccc1)N1CCCC1	-0.55	/
90	O=C(CSc1ncn[nH]1)Nc1ccccc1Cl	1	/
91	O=C1N=c2ccc(F)cc2=C1c1sc(=Nc2ccccc2)n(-c2ccccc2)c1O	/	-0.155
92	CC1=C(C(=O)Nc2ccccc2Br)C2(CCCCC2)OC1=O	-0.8	5.23
93	O=P(c1ccccc1)(c1ccccc1)C(O)c1ccc2c(c1)OCO2 (stereo not drawn)	-0.15	/
94	CC1(C)Cc2cccc(OCC(=O)OCC(=O)c3ccc4[nH]c(=O)[nH]c4c3)c2O1	-0.8	/
95	COc1cc(C(C(=O)Nc2c(C)cccc2C)N(C)C(=O)c2ccc(-n3cnnn3)cc2)ccc1O (stereo not drawn)	-1.5	0.45
96	CN1CCN(C(=O)c2cn(-c3ccccc3)nc2-c2cccs2)CC1	-0.8	/
97	CC(=O)NCc1ccccc1	-1	/
98	CCN(CC)S(=O)(=O)c1ccc2oc(C(=O)Nc3cccc(Cl)c3)c(C)c2c1	-0.8	73

New compounds follow:
cpd	mol	AID504770	CapD inh
99	CSc1ncc(C(=O)NCc2ccccc2)c(C)n1	2.3	0.675
100	O=C(O)CCN=C1CCc2ccccc2N1	-0.7	0.62
101	CC(C)(C)Oc1ccc(CC(CO)NC(=O)OCC2c3ccccc3-c3ccccc32)cc1 (stereo not drawn)	-0.1	0.515
102	c1nc(NC2CCCC2)c2c3c(sc2n1)CCC3	-0.1	0.25
103	CC(c1ccccc1)n1cnc2ccccc2c1=O (stereo not drawn)	-0.15	-0.3
104	O=[N+]([O-])c1cccc(C2=Nc3ccccc3C(c3ccccc3)(c3ccccc3)O2)c1	/	0.015
105	C=CCn1c(SCC(=O)Nc2ccc(OCC)cc2)nc2sc(CC)cc2c1=O	/	0.86
106	CCS(=O)(=O)NCCc1csc(C)n1	0	0.895
107	COc1ccc(CC(=O)N(CC#N)CC#N)cc1OC	1.35	-0.135
108	CCOc1ccc2c(c1)-c1c(ssc1=S)C(C)(C)N2C(=O)c1cccc(OC)c1	/	-0.375
109	CCC1CCCCN1C(=O)c1sc2ncn(CCOC)c(=O)c2c1C (stereo not drawn)	/	6.16
110	COc1ccc(C(=O)NCC(=O)NC2=NCCS2)cc1	-0.35	0.31
111	O=C1NC(=Nc2ccc(Cl)cc2)SC1Cc1ccc(Cl)cc1 (stereo not drawn)	/	0.4
112	CSc1cccc(N2CC(C(=O)O)CC2=O)c1 (stereo not drawn)	-0.95	-0.66
113	FC(F)(F)c1ccc(-c2nc(-c3ccccc3)ncc2-c2ccnc3ccccc23)cn1	/	-0.28
114	Cc1c(S(=O)(=O)N2CCCC2c2ccc(F)cc2)cnn1-c1ccccc1 (stereo not drawn)	-0.75	-0.235
115	COc1ccccc1NC(=O)c1ccc2c(c1)C(=O)N(CC1CCCO1)C2=O (stereo not drawn)	0.05	-0.865
116	CCOC(=O)c1ccc2ncc(C(=O)OCC)c(NCCCN3CCOCC3)c2c1	0.6	5.86
117	O=c1c(S(=O)(=O)c2ccccc2)c[nH]c2ccccc12	-0.05	0.19
118	COc1ccc(C(=O)N(CC#N)CC#N)cc1OC	0.3	0.385
119	CCOC(=O)/C=C(\C)N1N=C(c2cccc([N+](=O)[O-])c2)CC1c1ccc(OC)cc1 (stereo not drawn)	/	-0.39
120	CO/N=C(\C)c1noc(C)c1C(=O)Nc1ccc(I)cn1	/	0.165
121	COc1ccccc1C(=O)NNC(=O)c1cc(OC)c(OC)c(OC)c1	/	0.61

Of the compounds above, these contain bromine:
cpd	mol	AID504770	CapD inh
14	CC1(C)CC(=O)C2=C(C1)c1c(ccc3ncccc13)NC2c1ccc(Br)cc1 (stereo not drawn)	/	18.8
27	CCn1nc(C)c(Br)c1-c1nc(CS(=O)(=O)c2ccc(F)cc2)no1	0.05	0.2
31	COc1cccc(C(=O)Nc2ccc3oc(-c4cccc(Br)c4)nc3c2)c1	/	26
32	Brc1cccc(-c2n[nH]c(-c3ccccc3)n2)c1	-0.55	-0.64
47	Cc1c(Br)c(C(F)(F)F)nn1CC(=O)Nc1cc(Oc2cccnc2)cc([N+](=O)[O-])c1	/	-0.105
70	CC(C)C1N=C2c3ccccc3N=C(SCC(=O)c3ccc(Br)cc3)N2C1=O (stereo not drawn)	-0.25	-0.435
75	Cc1ccc(-n2[nH]c(C)c(C=Nc3ccc(Br)cn3)c2=O)cc1C	/	-0.19
92	CC1=C(C(=O)Nc2ccccc2Br)C2(CCCCC2)OC1=O	-0.8	5.23
